gsp ag – agonists of gsp mutant (McCune-Albright syndrome). Potency, µM (highest dose often 76.9 µM), for the others: at the top dose activation (cAMP increase), actives largely listed as activators. gsp mutant cells, cAMP HTRF, 30 min; control for the full effect not named in the record. 0.13% of 340,000 active; active = well fitted activation curve with a large enough effect; inconclusive = small, poorly fitted or top-dose-only effect, or another doubt; inactive = no such curve, though single readings can be large or run the other way; cell line not stated here;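 also: phosphodiesterase inhibitor Ro 20-1724 added with compounds to block cAMP breakdown; potency is read from the fitted curve at half-maximal effect; nearly all actives have a fitted effect of over 60% in size; about a fifth of the inactives were tested at one dose only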
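Cells stably selected in G418 were plated at 2000/well, grown 16-24 hr, then given compounds in DMSO with the PDE inhibitor […] (300 uM solution added) for 30 min at 37C; cAMP was read by HTRF.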
Menin-MLL FL inh – displaces fluorescein MLL peptide from human menin; AID 1766; Fluorescence polarization, fluorescein-MLL peptide displacement from menin; FP activity change, % at 61.4 µM; 290,000 tested, under 10 active; inconclusive = falling polarisation curve, or a change in total fluorescence; inactive = total fluorescence flat and polarisation flat or rising; no compound was filed as active; the % refers to the polarisation; negative = inhibition;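 also: % of control where 0% means no effect; inhibitors lower the polarisation; unlabelled MLL peptide was the positive control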
gsp antagonist – antagonists of gsp mutant (McCune-Albright syndrome) | Potency, µM (series often up to 76.9 µM), without a hit: at the highest dose activity change, negative = inhibition, most hits filed as inhibitors | 0.4% of 340,000 active | gsp-mutant cells, cAMP HTRF, 30 min; control for the full effect not named in the record; active = falling curve of any shape with a large fitted effect; inconclusive = falling curve, mostly with a smaller effect; inactive = flat or rising curve; cell line not stated here;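 also: intracellular cAMP measured with PDE inhibitor Ro 20-1724 present during compound exposure; potency is read from the fitted curve at half-maximal effect; % is scaled to controls: 0 for no effect and ±100 for the full control effect; nearly all actives have a fitted effect of over 65% in size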
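HTRF cAMP read-out (cAMP-d2 plus anti-cAMP antibody-K in lysis buffer, 30 min RT). Before lysis, cells are exposed to compounds with […] for 30 min at 37C in DPBS containing Ca/Mg, BSA and Tween 20.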
ClpP mod – qHTS Assay for Activators of ClpP; ATP-dependent Clp protease proteolytic subunit (Bacillus subtilis (strain 168)), P80244; purified B. subtilis ClpP, FRET peptide cleavage, 20 min; Potency, µM (series often up to 57.5 µM), inactives show top-dose activity change, negative = active; 1.9% of 340,000 active; active = well fitted falling curve with a large enough effect; inconclusive = small, poorly fitted or top-dose-only effect; inactive = no such curve, though single readings can be large or run the other way; also: potency is read from the fitted curve at half-maximal effect; the source files actives as falling curves though it sought activators and does not explain the sign; nearly all actives have a fitted effect of over 65% in size; many hits overshoot -100%
Target sequence (P80244 whole entry, looked up): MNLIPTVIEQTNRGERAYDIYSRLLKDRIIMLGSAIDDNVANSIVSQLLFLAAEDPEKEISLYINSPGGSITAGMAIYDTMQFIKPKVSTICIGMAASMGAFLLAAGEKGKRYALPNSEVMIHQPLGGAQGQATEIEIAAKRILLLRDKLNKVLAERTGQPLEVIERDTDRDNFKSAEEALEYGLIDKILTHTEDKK
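Buffer: 100 mM Tris/HCl pH8, 100 mM KCl, 0.05% low protease BSA, 2.5% glycerol, 0.01% Tween-20. ClpP 10 microg/mL final; 20 min RT; delta FRET normalized to ADEP and DMSO controls.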
TRPML1 blocker – blocks the human TRPML1 channel | Q9GZU1 | TRPML1-inducible cells, Ca2+ dye fluorescence, FDSS; hits give low values; inhibition of EC80 agonist-evoked calcium signal | activity change, negative = inhibition, % (test concentration not listed) | 0.02% of 390,000 active | AID 624415; in the data active means activity change below about -50%; inconclusive means about -30% to -50%; inactive means above about -30%;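 also: stimulus is agonist 54-4 at its EC80 concentration; % is scaled to controls: 0 for no effect and ±100 for the full control effect; compound concentration not given in the record; the text of the record puts the active cut at -80%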
Target sequence (Q9GZU1 whole entry, looked up): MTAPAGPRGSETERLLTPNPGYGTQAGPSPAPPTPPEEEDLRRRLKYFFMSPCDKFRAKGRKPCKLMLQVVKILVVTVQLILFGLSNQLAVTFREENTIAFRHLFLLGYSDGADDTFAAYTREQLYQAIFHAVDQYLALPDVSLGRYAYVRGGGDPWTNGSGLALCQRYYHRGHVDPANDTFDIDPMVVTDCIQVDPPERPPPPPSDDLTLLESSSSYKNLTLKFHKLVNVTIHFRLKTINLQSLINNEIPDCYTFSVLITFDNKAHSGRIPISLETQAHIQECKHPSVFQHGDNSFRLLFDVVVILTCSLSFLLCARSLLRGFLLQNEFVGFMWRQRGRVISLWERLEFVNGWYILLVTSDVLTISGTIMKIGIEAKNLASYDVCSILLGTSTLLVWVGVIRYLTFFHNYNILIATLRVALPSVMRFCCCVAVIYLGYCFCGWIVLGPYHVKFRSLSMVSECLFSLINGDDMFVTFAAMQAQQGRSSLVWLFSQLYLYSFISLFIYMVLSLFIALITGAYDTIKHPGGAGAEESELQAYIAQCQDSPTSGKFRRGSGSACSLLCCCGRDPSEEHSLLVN
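TRPML1-DL cells, Tet-induced overnight (~16 h, 37 °C) at 1,500 cells/well, were loaded with Ca8 no-wash dye plus quencher for 45-90 min at room temperature. Compounds were pinned during FDSS kinetic reading; agonist 54-4 at EC80 (4 uM final) then added.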
TRPML1 agonist – activates the human TRPML1 channel; Q9GZU1; activation, % (no concentration beside the values); 0.12% of 410,000 active; TRPML1-expressing cells, Ca2+ dye fluorescence, FDSS; host cell line not named in the record; reference of the full effect not given here; in the data active = activation above about 50%; inconclusive = about 30% to 50%; inactive = below about 30%; also: 0% is about no effect; the text of the record puts the active cut at 80%
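Kinetic FDSS Ca2+ read in Tet-induced TRPML1-DL cells (ABD Ca8 dye plus quencher, 45-90 min RT loading): baseline, then compound, then 110 s agonist window; EC80 agonist 54-4 at 4uM final added afterwards for a 110 s antagonist window.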
The depositor's hits bear a star; ? = inconclusive; · = no result given; & = joins results of further samples; [ ] = dose if it differs, or a comment.

SMILES | gsp ag | Menin-MLL FL inh | gsp antagonist | ClpP mod | TRPML1 blocker | TRPML1 agonist
COc1cccc(C(=O)N2CCN(Cc3ccco3)CC2)c1OC | ? | 0.1 | 8% | -2.8% | -11 | 2.3
COc1cc2cc(CCOC(=O)c3ccc(F)cc3)oc(=O)c2cc1OC | · | · | 50µM* | 1.9% | 35 | 1.3
C1CCC(n2nnnc2CN2CCN(C3CCCC3)CC2)CC1 | -18% | -0.8 | 5% | -0.4% | 17 | 0.9
Cc1cc(C(F)F)n2nc(C(=O)Nc3ccc(S(=O)(=O)N4CCCC4)cc3)nc2n1 | ? | 1.5 | 2% | 1.5% | 7 | 0.1
COc1ccc(C(=O)CSc2cc(C)nc(SCC(=O)c3ccc(C)cc3)n2)cc1 | 11% | 4.9 | 0% | -3.1% | -10 | 2.0
Cc1nc(-c2ccc(S(=O)(=O)NCc3ccccc3Cl)cc2)co1 | · | · | · | -5.4% | -11 | 2.7
O=C(O)C1(Nc2ccc([N+](=O)[O-])cc2[N+](=O)[O-])CCCC1 | 17% | · | 4% | -2.5% | -6 | -0.2
Cc1cc(C(=O)CCl)c(C)n1CCc1ccc(F)cc1 | -16%[15.4 µM] | -5.2 | · | · | 6 | 0.0
COC(=O)c1ccccc1NC(=O)N1CCN(c2ccccc2)CC1 | 11%[15.4 µM] | -0.8 | 2% | · | 26 | 4.4
CC(=O)Nc1nonc1-c1nc2ccccc2n1Cc1ccccc1 | -33%[inhibitor] | -1.4 | -22% | 18% | 27 | -0.1
COCC(=O)N(Cc1cc2ccccc2[nH]c1=O)c1ccccc1OC | 10% | 3.5 | 1% | -7.1% | 59 | 0.1
CC(C)c1ccc(NC(=O)N2CCN(S(=O)(=O)c3ccccc3)CC2)cc1 | -63%[inhibitor] | 0.1 | -14% | · | 8 | 0.9
CCOc1ccc2[nH]c(=O)c(CN(CCCN3CCOCC3)C(=O)Nc3ccc(F)cc3)cc2c1 | -35% | · | 13% | -1.1% | -17 | 0.1
CC(C)N(Cc1nccn1C)C(=O)c1cc(COc2cccc(C(F)(F)F)c2)on1 | ? | -2.9 | 10% | 1.3% | 19 | -0.6
CCOC(=O)C1=C(C)N=c2s/c(=C/c3cccc([N+](=O)[O-])c3O)c(=O)n2C1c1ccc(OC)cc1OC (configuration not stated) | -65%[inhibitor] | 31[activator] | -29% | · | -7 | 1.2
O=C(Cn1nc(-c2ccc(Cl)cc2)ccc1=O)NCCCN1CCN(Cc2ccccc2)CC1 | -3%[15.4 µM] | 1.3 | 18% | 32µM* | 26 | -0.4
Cn1c(=O)c2ncn(CC(=O)NCCOc3ccc(C(C)(C)C)cc3)c2n(C)c1=O | 22% | -1.9 | 8% | -0.8% | 1 | -0.1
c1ccc(-c2cc3cc4c(cc3cn2)OCO4)cc1 | -28% | · | -17% | -21% | 6 | -0.8
CCc1ccc(CCC(=O)Nc2sc(C)c(C)c2C(=O)OC)o1 | -64%[inhibitor] | -0.1 | -6% | -21% | 1 | -0.1
OCCN1CCN(CC#CCC(c2ccccc2)c2ccccc2)CC1 | -17% | -3.1 | 1% | 1.0% | 0 | 0.5
CCc1ccc(-c2nc(C)c(CCO)c(=O)[nH]2)cc1 | 25% | -2.2 | 6% | · | -4 | -0.4
COCCOC(=O)C1=C(C)NC(=O)NC1c1ccco1 (configuration not stated) | 23% | 1.3 | -1% | · | 25 | 1.7
CN(C)CCN1C(=O)c2oc3ccc(F)cc3c(=O)c2C1c1ccncc1 (configuration not stated) | 5% | -2.1 | 2% | -9.5% | -2 | 0.4
Cc1ccc(C(=O)CC2(O)C(=O)N(CN3CCOCC3)c3ccccc32)cc1 (configuration not stated) | 22% | 2.7 | 2% | 0.7% | 0 | -0.6
COc1ccccc1NS(=O)(=O)c1ccc(O)c(C(N)=O)c1 | 11% | 3.1 | 3% | ? | 2 | -0.3
O=C(NC(=S)NCC1CCCO1)c1ccc(Br)o1 (configuration not stated) | 27% | -0.7 | -9% | · | -6 | -1.2
CN(C)CCNC(=O)c1ccc2c(c1)N(Cc1c(F)cccc1Cl)C(=O)c1ccccc1S2 | · | · | · | -0.9% | -3 | 2.7
Cc1ccccc1N/C=C/C(=C(C#N)C#N)N(C)C | -8% | 2.4 | -1% | 0.6% | 11 | 0.8
Cc1cc(NC(=O)c2cc3n(n2)C(C(F)(F)F)CC(c2ccco2)N3)no1 (configuration not stated) | 19% | -2.4 | 2% | -0.3% | -5 | 0.1
CSc1ccccc1NC(=O)CN(C)Cc1c(O)ccc2ccccc12 | -26%[15.4 µM] | 6.9 | -9% | · | ? | -0.5
Nc1nc(COc2ccc(F)cc2)nc(N2CCCCC2)n1 | -10%[15.4 µM] | -1.9 | -2% | · | 0 | 0.3
CCOc1ccc(S(=O)(=O)N(C)c2ccc(OCC(=O)Nc3nc4ccccc4s3)cc2)cc1 | ? | 4.7 | -4% | -2.9% | -13 | 0.6
COc1ccc(CSc2nncn2N)cc1Br | -28% | 0.5 | -1%[15.4 µM] | -4.2% | -3 | 0.4
CCN(c1ccccc1)c1nc(Cl)nc2c1cnn2C | 28% | · | 13% | · | 4 | 0.2
O=C(COc1ccc(Br)cc1)N1CCN(c2ncccn2)CC1 | -5% | · | 1% | ? | 2 | -1.2
CCc1ccccc1NC(=O)c1cc2sc(Cl)cc2n1CC | · | · | · | ? | -3 | -0.4
Cc1cc(C)cc(NC(=S)NC2CC3CCCC(C2)N3CC(C)C)c1 (configuration not stated) | -46%[inhibitor] | -2.6 | 5% | 1.7% | 39 | 1.1
Cc1ccc(S(=O)(=O)N2C[C@H]3N(C(=O)OC(C)C)N(C(=O)OC(C)C)C[C@H](OC(=O)Nc4c(C)noc4C)[C@@]3(O)C2)cc1 | ? | · | · | 0.2% | -1 | -0.2
S=C(NCCN1CCOCC1)Nc1ccccc1Cl | 10% | -10 | -2% | 3.0% | -4 | 0.6
COc1ccc(-n2nc(C(=O)Nc3cccc(C(F)(F)F)c3)c3c4ccccc4n(C)c3c2=O)cc1 | · | · | · | ? | 0 | 1.3

Not a retest: entries from further up.
SMILES | gsp ag | Menin-MLL FL inh | gsp antagonist | ClpP mod | TRPML1 blocker | TRPML1 agonist
COc1cccc(C(=O)N2CCN(Cc3ccco3)CC2)c1OC | ? | 0.1 | 8% | -2.8% | -11 | 2.3
COc1cc2cc(CCOC(=O)c3ccc(F)cc3)oc(=O)c2cc1OC | · | · | 50µM* | 1.9% | 35 | 1.3
C1CCC(n2nnnc2CN2CCN(C3CCCC3)CC2)CC1 | -18% | -0.8 | 5% | -0.4% | 17 | 0.9
Cc1cc(C(F)F)n2nc(C(=O)Nc3ccc(S(=O)(=O)N4CCCC4)cc3)nc2n1 | ? | 1.5 | 2% | 1.5% | 7 | 0.1
COc1ccc(C(=O)CSc2cc(C)nc(SCC(=O)c3ccc(C)cc3)n2)cc1 | 11% | 4.9 | 0% | -3.1% | -10 | 2.0
Cc1nc(-c2ccc(S(=O)(=O)NCc3ccccc3Cl)cc2)co1 | · | · | · | -5.4% | -11 | 2.7
O=C(O)C1(Nc2ccc([N+](=O)[O-])cc2[N+](=O)[O-])CCCC1 | 17% | · | 4% | -2.5% | -6 | -0.2

Following part.
SMILES | gsp ag | Menin-MLL FL inh | gsp antagonist | ClpP mod | TRPML1 blocker | TRPML1 agonist
CCCCCn1c(SCCOCC)nc2c1c(=O)[nH]c(=O)n2C | 22% | 3.7 | 0% | -1.2% | -10 | 0.0
COc1ccc(Br)cc1CNC(=O)C1CCC(=O)N1C(C)C (configuration not stated) | -1% | · | 3% | 1.5% | 11 | -1.0
O=C(c1nn2cccnc2c1Cl)N1CCN(c2ccccc2)CC1 | 5% | -0.3 | -2% | ? | -23 | 0.1
Cc1[nH]nc(N=CC2=C(O)CC(c3ccco3)CC2=O)c1-c1ccccc1 (configuration not stated) | ? | ? | -6%&-8% | -12% | -2&-4 | -0.2&2.9
C=CCN(c1ccccc1OC)S(=O)(=O)c1cccc(C(=O)OCC(=O)N2CC(C)OC(C)C2)c1 (configuration not stated) | 15% | · | 1% | -2.7% | 1 | 0.3
CC(C)NC(=O)N(C)C[C@H]1Oc2ccc(NS(=O)(=O)c3cn(C)cn3)cc2C(=O)N([C@H](C)CO)C[C@@H]1C | 13% | · | 7% | -4.6% | 22 | -0.4
COc1ccc(C2/C=C\CN3CCC[C@H]3C(=O)N2Cc2ccc(F)cc2)cc1 (some centres not stated) | · | · | -4% | -1.1% | -14 | -0.6
CC(=O)NCCc1ccc(C(=O)COC(=O)c2ccc(C)s2)cc1 | 1% | · | · | -2.7% | -3 | -0.3
CCn1c(=O)n(CC)c2cc(N3CCCC3)c(NC(=O)c3cc(Br)ccc3OC)cc21 | -9% | · | ? | -0.2% | -3 | 0.0
CS(=O)(=O)N1CCC(C(=O)c2cccc(Cl)c2)CC1 | 13% | -3.5 | -3% | -1.8% | -3 | 0.2
CCOc1ccc(NC(=O)CSc2nnc(C)n2CCCOC)cc1 | -4% | -1.2 | 5% | -0.4% | -1 | -0.4
Cc1cc(N2CCN(CC(O)C(F)(F)F)CC2)c2ccccc2n1 (configuration not stated) | -42%[inhibitor] | -2.3 | 11% | -1.2% | 40 | 0.0
COc1ccc(C(=O)Nc2ccccc2C(=O)NCc2cccnc2)cc1 | -9% | -7.0 | ? | -13% | -17 | -0.3
CCOC(=O)CSc1ccc2ccccc2n1 | 8%[15.4 µM] | -2.8 | 14% | -4.0% | -10 | 0.1
COc1ccc(C2C(C#N)=C(N)Oc3cc(O)ccc32)cc1Cl (configuration not stated) | 1% | ? | -26% | -2.0% | · | ·
O=S(=O)(Nc1ncnc2sc3c(c12)CCC3)c1ccc2ccccc2c1 | -32%[inhibitor] | 1.1 | -14% | -2.7% | -2 | 1.1
CCc1ccc(Oc2nc([N+](=O)[O-])nn2C)cc1 | 7%[15.4 µM] | -2.1 | 12% | 0.1% | 35 | 0.8
CS(=O)(=O)N(Cc1ccco1)CC(O)Cn1cc(C=O)c2ccccc21 (configuration not stated) | -29% | 0.8 | -13% | -6.7% | 68 | 0.5
COc1ccc(CNc2cc(NCCCO)c([N+](=O)[O-])c3nonc23)cc1 | 20% | 0.9 | 8% | · | -9 | -0.7
CC1CC(OC(=O)C2CCN(S(=O)(=O)c3ccc(F)cc3)CC2)C(=O)O1 (configuration not stated) | 17%[15.4 µM] | · | 0% | · | -6 | 0.0

Source: PubChem (National Center for Advancing Translational Sciences (NCATS))

Outcome played no part in choosing rows; any-hit rate near 2.1%.
